Screens deposited in PubChem by National Center for Advancing Translational Sciences (NCATS).
2A StopGo: FMDV 2A StopGo reporter, luciferase signal | actives 1.2% (n = 410,000) | AID 1159524 | Potency, µM (series often up to 57.9 µM), without a hit: at the highest dose signal change, negative = less light | human cells with a luciferase reporter of 2A StopGo recoding; control for the full effect not named in the record; active = well fitted falling curve with a large enough effect; inconclusive = small, poorly fitted or top-dose-only effect; inactive = no such curve, though single readings can be large or run the other way; tested in HEK293T cells; further: on the % scale 0 is the no-effect control and ±100 the full control effect; nearly all actives have a fitted effect of over 45% in size; luciferase light after 4 h
RE007 growth inh: less growth of the S. pombe RE007 Vpr strain; S. pombe RE007 Vpr strain, BacTiter-Glo ATP luminescence, 24 h; control for the full effect not named in the record; Potency, µM (top dose mostly 92.2 µM), inactives show at the highest dose activity change, negative = less growth; actives 0.21% (n = 360,000); AID 651644; active = well fitted falling curve with a large enough effect; inconclusive = small, poorly fitted or top-dose-only effect; inactive = no such curve, though single readings can be large or run the other way;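 further: on the % scale 0 is the no-effect control and ±100 the full control effect; nearly all actives have a fitted effect of over 50% in size; the assay follows cell death caused by Vpr and the record does not say whether a fall means rescue or toxicity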
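Fission yeast RE007 carrying one integrated HIV-1 vpr copy, seeded at OD 0.01 in PMG+AL medium with 23 nL pinned compound. Grown 24 h at 30 degrees; viability read by BacTiter-Glo luminescence after 5 min.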
SARS PLpro yeast: blocks SARS-CoV papain-like protease in a yeast assay. S. cerevisiae expressing SARS-CoV PLpro, growth rescue; control for the full effect not named in the record. Potency, µM (top dose mostly 32.9 µM), without a hit: at the top dose activity, positive = growth rescue. actives 0.19% (n = 330,000). AID 485353; active means well fitted rising curve with a large enough effect; inconclusive means small, poorly fitted or top-dose-only effect; inactive means no such curve, though single readings can be large or run the other way; further: 0% is about no effect; nearly all actives have a fitted effect of over 55% in size; growth read by luminescence after 48 h
Active calls of the source: *; ? = inconclusive; [ ] = dose if it differs, or a comment. Potency means the concentration at half of the fitted maximal effect.

Second line of a record: 2A StopGo	RE007 growth inh	SARS PLpro yeast
1	CCN(CC)S(=O)(=O)c1cccc(NC(=O)COC(=O)c2cc(=O)c3ccccc3o2)c1
→ -10%	-1%	2%
2	O=C(Cn1nnc(-c2cccs2)n1)Nc1ccccc1C(F)(F)F
→ -12%	5%	-6%
3	COc1ccc(OC)c(CN2CCN(Cc3cccc4ccccc34)CC2)c1
→ -27%	1%	4%
4	CC1(C)OC(=O)C=C[C@]2(C)[C@H]3CC[C@@]4(C)[C@H](C(=O)O)OC(=O)[C@H]5O[C@]54[C@]3(C)C(=O)C[C@@H]12
→ -24%	0%	14%
5	Cc1ccc(S(=O)(=O)NCC(=O)OCCOc2cccc(Cl)c2)cc1
→ 0%	-2%	0%
6	O=C(CSc1ccccc1C(=O)O)c1ccc([N+](=O)[O-])cc1
→ 24%	-15%	-3%
7	COc1ccccc1CNC(=O)CN1c2cccc3cccc(c23)S1(=O)=O
→ 6%	3%	-1%
8	CC(=O)NC(=S)NNC(=O)COc1ccc(Br)cc1
→ 26%	30%	0%
9	N#CC1(NC(=O)CN2C(=O)c3ccccc3C2=O)CCCCC1
→ -3%	2%	4%
10	COc1ccc2cc(-c3cccnc3)ncc2c1
→ 39%[activator]	-11%	0%
11	CCc1noc(C)c1C(=O)N1CCN(S(=O)(=O)c2cccc(C(F)(F)F)c2)CC1
→ -1%	13%	-3%
12	COc1ccc2ccc(O)c(CN3CCN(S(=O)(=O)c4cc([N+](=O)[O-])ccc4C)CC3)c2c1
→ ?	-9%	1%
13	Cc1ccc(NC(=O)CCN2C(=O)C3CC=CCC3C2=O)cc1Cl (stereo not given)
→ 16%	0%	-11%
14	CCOC(=O)N1CCN(C(=O)C(CC(C)C)NS(=O)(=O)c2ccc(C)cc2)CC1 (stereo not given)
→ ?	-22%	-1%
15	CCCN1CCC(NC(=S)Nc2ccc(OC)c(OC)c2)CC1
→ -1%	10%	1%
16	Cc1cccc(C)c1NC(=O)CNC(=O)C(C)N1CCN(c2cccc(Cl)c2)CC1 (stereo not given)
→ -27%	-12%	1%
17	CC(C)NC(=O)Nc1ccc2c(c1)C(=O)N([C@H](C)CO)C[C@H](C)[C@@H](CN(C)C(=O)Nc1ccc(C(F)(F)F)cc1)O2
→ -9%	-18%	-1%
18	COc1ccccc1-c1nn(Cc2ccccc2)cc1C(=O)NCC(c1ccco1)N1CCCC1 (stereo not given)
→ -6%	-4%	2%
19	CCOC(=O)[C@@H]1[C@H]2COc3ccc(Br)cc3[C@@H]2N2C(=O)N(c3ccc(OC)cc3)C(=O)[C@@]12C
→ -10%	-4%	6%
20	Cc1ccc(S(=O)(=O)NCCC(=O)NCC(c2cccs2)N(C)C)cc1 (stereo not given)
→ 1%	-8%	2%

In the list so far, these have a Cl atom.
Second line of a record: 2A StopGo	RE007 growth inh	SARS PLpro yeast
5	Cc1ccc(S(=O)(=O)NCC(=O)OCCOc2cccc(Cl)c2)cc1
→ 0%	-2%	0%
13	Cc1ccc(NC(=O)CCN2C(=O)C3CC=CCC3C2=O)cc1Cl (stereo not given)
→ 16%	0%	-11%
16	Cc1cccc(C)c1NC(=O)CNC(=O)C(C)N1CCN(c2cccc(Cl)c2)CC1 (stereo not given)
→ -27%	-12%	1%

Carrying on:
Second line of a record: 2A StopGo	RE007 growth inh	SARS PLpro yeast
21	CN1C(=O)N(CC(=O)Nc2sccc2C(N)=O)C(=O)C12CCCCC2
→ 3%	-2%	5%
22	CCOC(=O)c1sc2nc3c(SCCC(=O)O)cc(C(=O)c4cc(OC)ccc4O)cn3c(=O)c2c1C
→ 3%	22%	-1%
23	COc1ccc(S(=O)(=O)N2CCCCC2)cc1NC(=O)CCCNC(=O)c1ccc(Cl)cc1
→ -4%	1%	0%[6.58 µM]
24	Cc1cccc(C)c1NC(=O)CN(C)C(=O)C1CCCCC1
→ -23%	-10%	-9%
25	Cc1ccc(NS(=O)(=O)c2ccccc2F)cc1S(=O)(=O)N1CCCCC1
→ 50%[activator]	-4%	-3%
26	CCN(C[C@H]1N[C@@](C)(C(=O)OC)[C@H]2C(=O)N(Cc3ccccc3)C(=O)[C@@H]12)C(=O)Nc1ccc(C)cc1
→ -12%	1%	-9%
27	CCn1cc(C(=O)OC)c(=O)c2cc(S(=O)(=O)N(C)C3CCCCC3)ccc21
→ 11%	0%	3%
28	CC(C)Cn1c(SC(C)C(=O)NCC2CCCO2)nc2ccc(Cl)cc2c1=O (stereo not given)
→ -19%	-15%	-3%
29	Oc1ccc(-c2[nH]ncc2-c2nc3ccccc3s2)c(O)c1
→ -22%	-9%	3%
30	Cc1cccc(NC(=S)N2CCC(C(N)=O)(N3CCCCC3)CC2)c1C
→ 3%	2%	0%
31	Cc1ccc(N(C)S(=O)(=O)c2cccc(C(=O)NCC(c3ccco3)N3CCCC3)c2)cc1 (stereo not given)
→ -22%	-21%	-16%
32	Cc1[nH]c2ccc(C(=O)OC(C)C(=O)NC3CCCCC3C)cc2c1C (stereo not given)
→ -10%	-7%	6%
33	NS(=O)(=O)c1ccc(NC(=O)CSc2ccccc2)cc1
→ 36%[activator]	12%	5%
34	O=C(OCC(=O)N1CCC(Cc2ccccc2)CC1)c1cc(Br)ccc1O
→ -20%	-1%	6%
35	O=C(Nc1ccccc1F)C1CCCN1S(=O)(=O)c1ccc(Cl)cc1 (stereo not given)
→ -14%	-4%	-3%
36	O=C(O)CC12CC3CC(C1)CC(n1ncc(NCc4ccc(F)cc4Cl)c(Cl)c1=O)(C3)C2
→ -15%	-3%	1%
37	O=C1CC(c2ccccc2)NN1 (stereo not given)
→ -10%	3%	3%
38	O=C(COc1cccc(C(F)(F)F)c1)NCC(c1ccco1)N1CCCC1 (stereo not given)
→ -1%	-12%	3%
39	Cc1ccc(CNC(=O)CN(C)C2=NS(=O)(=O)c3ccccc32)cc1
→ ?	8%	-5%
40	COc1ccc(S(=O)(=O)Nc2cccc3c2O[C@H](CN(C)C(=O)Nc2ccc(C(F)(F)F)cc2)[C@@H](C)CN([C@H](C)CO)C3=O)cc1
→ 74%[activator]	14%	-18%
41	CN(CCOc1ccccc1)C(=O)c1ccc(Cl)c(S(=O)(=O)N2CCCCC2)c1
→ -19%	-4%	-8%
42	CC(=O)Nc1ccc(C(=O)OCC(=O)NCc2cccs2)cc1
→ -4%	-7%	2%
43	COc1cccc(CC(=O)NNC(=O)CN(C)S(=O)(=O)c2ccc(C)cc2)c1
→ -8%	5%	-7%
44	CC1CCCCC12NC(=O)N(CC(=O)N1CCc3ccccc31)C2=O (stereo not given)
→ 6%	1%	-1%
45	CC(=O)c1ccc(S(=O)(=O)N2CCN(CC(=O)Nc3ccc(Cl)c([N+](=O)[O-])c3)CC2)cc1
→ ?	-12%	-10%
46	COc1ccccc1C1=CC(=O)C[C@H](c2ccc(Cl)cc2)C1
→ 0%	6%	0%
47	COc1ccc(OC)c(C2=CC(=O)C[C@H](c3ccc4c(c3)OCO4)C2)c1
→ -7%	13%	4%
48	Cn1ccc(-c2ccccc2)n1
→ 24%	-8%	0%
49	CN(C(=O)CSc1nnc(-c2cccs2)n1N)c1ccccc1
→ 5%	-1%	0%
50	CC(CC(=O)Nc1cc(S(=O)(=O)N2CCOCC2)ccc1OCC(F)(F)F)c1ccccc1 (stereo not given)
→ -1%	8%	2%
51	COC(=O)C1=C(c2ccc(F)cc2F)C[C@@H]2CC[C@H]1N2C(=O)N1CCOCC1
→ 4%	9%	-8%
52	CSCCC(NC(=O)c1ccccc1)C(=O)NCCCSc1ccccc1 (stereo not given)
→ 4%	5%	16%
53	CCCCNc1c(-c2ccc(OC)c(SC3CCCCC3)c2)nc2ccc(C)cn12
→ 22µM*	-10%	16%
54	O=C(NCC1CCCO1)C(=O)c1c[nH]c2ccccc12 (stereo not given)
→ 43%[activator]	8%	-7%
55	COc1ccc(N2CCN(C(=O)CSc3nnnn3C3CC3)CC2)cc1
→ -15%	-8%	4%
56	C[C@H]1COC(=O)[C@@H](Cc2ccc(F)cc2)C/C=C\C[C@H](CC(=O)N(CCO)Cc2ccccc2)C(=O)N1
→ -15%	-6%	3%
57	O=C(Nc1ccc(SC(F)F)cc1)C1=CC=CN2CCS(=O)(=O)N=C12
→ -3%	-1%	17%
58	CCCn1c(N)c(C(=O)CSc2nncs2)c(=O)[nH]c1=O
→ -1%	5%	-1%
59	O=C(O)CNC(=S)N(Cc1ccccc1)Cc1ccccc1F
→ -13%	10%	0%
60	COc1cccc(C2=CC(=O)C[C@H](c3ccc(OC)c(OC)c3)C2)c1
→ -7%	-16%	2%
61	CC(C)(C)OC(=O)C[C@@H]1C/C=C\C[C@@H](CC(=O)N(CCO)Cc2ccccc2)C(=O)N2CCC[C@H]2COC1=O
→ -22%	1%	2%
62	CC[C@]12c3[nH]c4cc(CCC(=O)N(C)C)ccc4c3CCN1C(=O)[C@@H](CC(=O)NCC13CC4CC(CC(C4)C1)C3)C[C@@H]2C(=O)N1CCN(C(=O)c2ccco2)CC1
→ -20%	7%	-1%
63	COCCN(C(=O)CC1OC(=O)c2ccccc21)c1c(N)n(Cc2ccccc2)c(=O)[nH]c1=O (stereo not given)
→ -12%	7%	10%
64	COCCN(CC(=O)Nc1cccc(C)c1C)C(=O)c1cc(-c2ccncc2)nc2ccccc12
→ 30%[activator]	-2%	4%
65	O=C(COC(=O)/C=C/c1ccc(S(=O)(=O)N2CCOCC2)cc1)NC1CCCCCCC1
→ -7%	-5%	-1%
66	C=CC[C@@H](CC(=O)N[C@H](CO)Cc1ccccc1)C(=O)N[C@@H](COC(=O)[C@@H](CC=C)Cc1ccc(F)cc1)Cc1c[nH]c2ccccc12
→ -18%	14%	-10%
67	Cc1ccsc1C(=O)N(C)C1CCS(=O)(=O)C1 (stereo not given)
→ -2%	10%	3%
68	CC[C@@]12C(=O)N(c3cccc(F)c3)C(=O)N1[C@H](c1ccc(OC)cc1)[C@@H]1C(=O)N(C(C)(C)C)C(=O)[C@@H]12
→ -16%	-12%	-3%
69	COc1ccc(C2=NOC(Cn3nc(C(=O)NCC4CC4)cc3-c3ccccc3)C2)cc1 (stereo not given)
→ 0%	3%	-4%
70	CC1=NN(c2ccc([N+](=O)[O-])cc2)C(c2ccccc2)C1 (stereo not given)
→ ?	-5%	2%
71	COc1ccc2c(c1)[C@H]1[C@H](CO2)[C@H](c2ccccc2)[C@]2(C)C(=O)Nc3cc(F)c(F)cc3C(=O)N12
→ ?	1%	-1%
72	CN(C)c1ccc(P(=O)(CC(=O)N/N=C/c2ccc(C#N)cc2)OCCCl)cc1 (stereo not given)
→ 2%	16%	-1%
73	C=CCn1c(SCC(=O)c2ccc(O)c(O)c2)nnc1-c1ccc(C)cc1
→ 0%	-5%	-3%
74	COc1ccc(C(CNC(=O)c2cccn2C)N2CCOCC2)cc1 (stereo not given)
→ 47%[activator]	-16%	0%
75	Cc1ccc(C)c2nc(Cl)c(C3NC(=O)c4ccccc4N3)cc12 (stereo not given)
→ -8%	-3%	0%
76	CCOc1[nH]n(-c2ccccc2)c(=O)c1C=NCc1ccncc1
→ 6%	-2%	0%
77	O=C(COC(=O)c1cccc(Cl)c1Cl)NCc1cccs1
→ 10%	9%	-2%
78	CCOC(=O)[C@H]1[C@H]2COc3cc(OC)ccc3[C@@H]2N2C(=O)c3ccc(F)cc3NC(=O)[C@@]12C
→ -25%	2%	6%
79	C=CC[N+]1(C)C2CCC1CC(O)C2 (stereo not given)
→ 12%	4%	2%
80	CCOP(=O)(O)c1cccc(OCCOCCOc2cccc(P(=O)(O)OCC)c2)c1
→ 6%	-2%	-1%

(listing goes on)
Second line of a record: 2A StopGo	RE007 growth inh	SARS PLpro yeast
81	CC(=O)Nc1ccc(S(=O)(=O)Nc2ccc(=O)n(Cc3ccc(Cl)c(Cl)c3)c2)cc1
→ 22%	-14%	0%
82	Cc1sc2ncnc(N3CCC(C(=O)Nc4ccc(OC(F)F)c(Cl)c4)CC3)c2c1C
→ ?	-14%	-15%
83	CCOc1cc(C(=O)Nc2cc(C(=O)OC)ccc2C)ccc1OCC(=O)N1CCOCC1
→ 3%	-9%	1%
84	COc1ccc2c(-c3ccc(OCCN4CCOCC4)cc3)c(-c3ccccc3OC)sc2c1
→ 0%	-1%	-43%
85	C=C1C(O)[C@@H]2O[C@]3(CC[C@H](/C=C/C(C)[C@@H]4CC(C)=CC5(O[C@H](C[C@@](C)(O)CO)CCC5O)O4)O3)CC[C@H]2O[C@@H]1C(O)CC(C)[C@H]1OC2(CCCCO2)CCC1C (stereo not given in full)
→ -14%	-7%	-2%
86	CCNc1nc(NCC)n2c(SCC(=O)c3ccccc3F)nnc2n1
→ 5%	3%	-2%
87	CC[C@]12c3[nH]c4cc(CCC(=O)N(C)C)ccc4c3CCN1C(=O)[C@@H](CC(=O)NC/C=C(\C)CCC=C(C)C)C[C@@H]2C(=O)N1CCN(C(=O)c2ccco2)CC1
→ ?	4%	-11%
88	O=S(=O)(Nc1ccc2c(c1)OCO2)c1ccc(Cl)cc1F
→ 19%	12%	0%
89	Cc1ccc(-c2nn(Cc3ccccc3)cc2C(=O)N2CCN(c3ccccn3)CC2)cc1
→ 48%[activator]	3%	-4%

Only part of the results is shown. The share of hits here may be higher or lower than overall.
